# NPYLR7 agonist: mosquito NPYLR7 agonism | AID 1259423 | HEK293T NPYLR7/Galpha15, GCaMP6s calcium fluorescence | 270,000 compounds, 0.15% hits | activation, % at 10 µM; in the data active = activation above about 40%;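 also: 0% = vehicle and 100% = reference agonist at the receptor; some compounds past the cut are filed as inactive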
# NPYLR7 agonist max-min: further read-out of NPYLR7 agonist, marked with its call; activation, %; measured here: Max-Min RFU normalised activation; some inactives read as strong as hits;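 span of the calcium signal over five minutes; 0% = vehicle and 100% = native peptide agonist; compound fluorescence can raise it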
# * marks the source's active call; other numbers are inactive results; & = joins results of further samples. This is a subset; the hit share may differ from the screen's.
SMILES,NPYLR7 agonist,NPYLR7 agonist max-min
CCn1c(SCc2cccc(C)c2)nc2c(c1=O)SCC2,0,-1
Cc1ccc(C(=O)N(CC(=O)Nc2nc(CC(=O)NC(C)c3ccccc3)cs2)C2CC2)cc1 (centres undefined),11,8
O=C(C1=C(O)C(=O)N(CCN2CCOCC2)C1c1ccco1)c1cccs1 (centres undefined),13&-1,7&-2
COc1cc(C)c(S(=O)(=O)Nc2cccc(C(F)(F)F)c2)cc1C,6,1
Cn1c(CN2CCC3(CCNCC3)C2)cc2ccccc21,8,5
C=C(C)C(O)(C(=C)C)c1ccc(CN(Cc2ccsc2)CC2CCCO2)o1 (centres undefined),-9,-4
Nc1cccc(-c2cc(Nc3ccc(Cl)cc3)ncn2)c1,7,4
Cc1ccsc1C(=O)Nc1ccc(NC(=O)C2CC2)nc1,2,-1
Cc1ccc(/C=N\NC(=S)N2CCOCC2)cc1,15,9
C=CCNC(=S)NCCSC1Sc2ccccc2NC1=O (centres undefined),-5,-13
CC(c1nccs1)N(C)C(=O)CCc1c[nH]c2ccccc12 (centres undefined),-5,-9
CCOC(=O)N1CCc2c(sc3nc(C)[nH]c(=O)c23)C1,-2,-3
CCOC(=O)N1CCN(C(=O)c2cc(-c3ccc(OC)cc3OC)nn2-c2ccc([N+](=O)[O-])cc2)CC1,0,1
CCc1[nH]n(-c2ccc(Cl)c(Cl)c2)c(=O)c1C1=C(N2CCC(C)CC2)C(=O)N(c2ccc(OC)c(OC)c2)C1=O,-17,-11
Cc1nc(S(=O)(=O)c2ccc(F)cc2)c(N2CCOCC2)o1,3,-1
COc1cccc(C(=O)NC2CCN(c3ccccc3C(=O)N3CCOCC3)CC2)c1,18,11
Cn1c(NC(=O)C2CCCN(S(C)(=O)=O)C2)nc2cc(Cl)ccc21 (centres undefined),-4,-4
CC(C)CN1CC(OCc2ccccc2F)CN(C(=O)c2cncs2)CC1=O (centres undefined),1,-3
COc1ccc(CCNC(=O)CSc2nc(C)nc3sc4c(c23)CCC4)cc1OC,-4,-11
CNS(=O)(=O)c1ccc(F)c(C(=O)OCC(=O)N2CCCC2=O)c1,9,4
CN1CCc2cc(NC(=O)c3ccc(N4CCOC4=O)cc3)ccc21,31,20
Brc1ccc2ncnc(NCC3CCCO3)c2c1 (centres undefined),0,-3
Cc1cc(O)c(C(c2ccncc2)N2CCCCC2)c(=O)n1Cc1ccccn1 (centres undefined),29,24
CCN1C(=O)C2(SCCN2C(=O)NCc2cccc(C)c2)c2cc(F)ccc21 (centres undefined),19,12
CC(C)(C)C1CCCC2C1=Nc1ncnn1C2c1ccc(-c2ccccc2)cc1 (centres undefined),3,2
Cc1nc(SCc2cc([N+](=O)[O-])cc3c2OCOC3)c2c(C)c(C)sc2n1,8,6
C=CCOCC(O)CN(Cc1ccc(F)cc1)CC1CCCO1 (centres undefined),22,28
O=C(c1ccc(F)cc1)N1CCN(c2nc(-c3cccs3)nc3cc(Cl)ccc23)CC1,6,5
Cn1nc(C(C)(C)C)c2c1NC(=O)CC2c1ccc2cccc(O)c2n1 (centres undefined),-2,-3
Cc1ccc(S(=O)(=O)N2CCOC23CCN(C(=O)C(=O)NCCCc2ccccc2)CC3)cc1,9,0
Cc1ccc(N(C(=O)NC(=O)Nc2ccc(C=C(C#N)C#N)cc2)S(C)(=O)=O)cc1,-3,-5
COc1ccc(-n2c(SCc3cccc4ccccc34)nc3c(c2=O)SCC3)cc1OC,-4,-7
Cc1ccc(N(Cc2ccco2)C(=O)CCCN2C(=O)CCC2=O)cc1,0,2
Cc1ncc2c(c1CNC(=O)c1cncs1)CCN(C(=O)c1ccc3c(c1)c1ccccc1n3C)C2,-1,-6
CCC(C#N)Oc1cccc(CN)c1 (centres undefined),-1,-2
CN(CC(=O)N1CCC(c2ccccc2C(=O)O)C1)Cc1ccncc1 (centres undefined),6,-5
CCN(CC)C(=O)CSc1nc(-c2ccc(C)cc2)nc2c1Cc1c(CO)cnc(C)c1O2,24,23
c1coc(-c2nnc(SCc3nnc(-c4cccs4)o3)o2)c1,-2,-3
O=Cc1cccc(-c2nccnc2NCC2CCCCC2)c1,-6,-11
Cc1nc(SCC(=O)N(C)Cc2ccsc2)c(C(N)=O)c(C)c1C,1,-1
N#CC1C(=O)NC2(CCCCC2)N(c2ccccc2)C1=S (centres undefined),4,1
Cc1cccc(N(C)c2cc(Nc3cccc(C(=O)NCCCO)c3)ncn2)c1,-1,-4
Cc1nc(C(=O)NC(C)C(C)(C)C)c2n1CCCC2 (centres undefined),3,0
Cc1cccc(Cn2c(NCCO)nc3c2c(=O)[nH]c(=O)n3C)c1,-7,-7
COc1cccc(COC2CN(CCc3ccccc3)C(=O)CN(C(=O)c3cncs3)C2)c1 (centres undefined),7,-6
COc1ccc(OC)c2c1c(C)cc(=O)n2CC(=O)O,-9,-8
CCOc1ccc(-c2cc(-c3nc(-c4cccs4)no3)[nH]n2)cc1Cl,9,5
Cc1ccc(NC(=O)CC(=O)N(C)CCc2noc(C(C)C)n2)cc1,-2,-5
CCC(O)c1ccccc1 (centres undefined),-25,-31
CN(Cc1ccc(C(N)=O)cc1)c1ncccc1C#N,-1,-2
O=C(O)c1sc(C2CC2)nc1-c1ccccc1,-5,-5
CCCN(CC(=O)N1CCc2sccc2C1COc1ccc(F)cc1)C(=O)Cc1ccccc1 (centres undefined),-4,-2
CC(C)CCc1nc(Cn2c(C(F)(F)F)ccc(C(N)=O)c2=O)cs1,-1,-3
COc1ccc2nc(-c3ccc(OC)c(NC(=O)c4cccs4)c3)cn2n1,-15,-20
CCCCCCc1c(O)nc(SCC(=O)O)[nH]c1=O,4&-5,10&-8
Cc1nn(-c2ccc(N3CCN(C(=O)c4cccc5ccccc45)CC3)nn2)c(C)c1C,-4,-10
Cc1nonc1CN(C)C(=O)c1cc(C(C)C)on1,11,1
COC(=O)c1ccc(CN2C(=O)C(C)ON=C2c2cnccn2)o1 (centres undefined),7,4
CC1=NOC(C)(C(=O)NCc2cccnc2N2CCN(C)CC2)C1 (centres undefined),-5,-3
COc1ccc(C2=NN(c3ccccc3)C(c3ccc(OC)c(OC)c3)C2)cc1 (centres undefined),-5,-10
# The listing continues:
SMILES,NPYLR7 agonist,NPYLR7 agonist max-min
Nc1c(-c2ccccc2)ncn1C1CC1,3,1
O=C(c1nn2c(c1Cl)NC(c1ccco1)CC2C(F)(F)F)N1CCSCC1 (centres undefined),7,1
O=C(CN1CCCCCc2ccccc21)NC1CCOCC1,13,4
COC(=O)c1ccc(-c2nc3nnc(C)n3[nH]2)cc1,-1,-3
COCC(=O)N1CCC(C(NC(=O)c2ccccc2Cl)C(=O)N2CCCCC2)CC1 (centres undefined),3,6
COc1ncccc1-n1ccnc1-c1ccccc1OC(C)C(=O)O (centres undefined),6,-4
CC(C)c1ccc(OCC(=O)Nc2c3c(nn2CC(=O)NCc2ccc(F)cc2)CSC3)cc1,-6,-4
CCCOc1cc(Nc2ccc(NC(=O)Nc3ccccc3OCC)cc2)nc(C)n1,4,5
Cc1cccc(CSc2nnc(C(Cc3ccccc3)NC(=O)c3ccccc3Br)n2-c2ccc([N+](=O)[O-])cc2)c1 (centres undefined),4,12
COc1nn(C(C)C(=O)NNC(=S)NC2CCCCC2)cc1[N+](=O)[O-] (centres undefined),5,1
Cc1ccsc1C(=O)N1CCC1(C)C(=O)Nc1ccc2c(c1)OCCO2 (centres undefined),0,-2
O=C(c1nn(Cc2ccncc2)c2c1CN(Cc1cc3c(cc1Cl)OCO3)CC2)N1CCCC1,16,4
O[C@H]1CN(C2CCOCC2)[C@H]2CC[C@@H](N3CCOCC3)[C@@H]1C2,26,28
CCSC[C@H](N)C(=O)NCc1cnn2ccccc12,1,0
O=C(NCCc1ccccn1)Nc1nnc(-c2ccc(F)cc2)s1,5,2
O=c1ccc(-c2ccc(Cl)cc2)nn1CCCNS(=O)(=O)CCc1ccccc1,-3,-2
CCCCN(C)Cc1ccc(C(=O)Nc2c(C)noc2C)cc1,26,21
CC(C)C(NC(=O)c1ccc2c(c1)CCC(=O)N2)c1ccc2c(c1)OCCO2 (centres undefined),16,13
O=S(=O)(c1cccc(Br)c1)N1CCNCC1,1,-2
Cn1ncc2c(NC3CCN(Cc4cccnc4)CC3)nc(C(C)(C)C)nc21,1,10

# Looked up by structure from the entries so far (2):
SMILES,NPYLR7 agonist,NPYLR7 agonist max-min
O=C(c1nn2c(c1Cl)NC(c1ccco1)CC2C(F)(F)F)N1CCSCC1 (centres undefined),7,1
COc1nn(C(C)C(=O)NNC(=S)NC2CCCCC2)cc1[N+](=O)[O-] (centres undefined),5,1

# Following part
SMILES,NPYLR7 agonist,NPYLR7 agonist max-min
O=C(CCc1ccccc1)C1CCCN(Cc2nc(-c3ccc(Cl)cc3)no2)C1 (centres undefined),4,-1
CCCN(Cc1ccccc1)C(=O)Nc1ccc(OCC(=O)N(C)C)cc1,6,2
CCOc1ccc(-c2ccc(SCC(=O)c3ccccc3)nn2)cc1,1,0
NC(=O)c1cnc2n1CCN(C(=O)c1cccc(Cn3cccn3)c1)C2,11,5
Cc1cc([N+](=O)[O-])nn1CC(=O)NCc1cccs1,-1,-10
COc1ccc(OC)c(-c2cc(Cl)c3c(c2)CC(CNC(=O)CCn2cncn2)O3)c1 (centres undefined),0,-6
N=C1C(c2nc3ccccc3[nH]2)C(=O)CN1NC(=O)c1sc2ccccc2c1Cl (centres undefined),6,5
CCc1ccc(S(=O)(=O)Nc2ccc3c(c2)C(=O)Nc2cc(C)ccc2O3)s1,1,0
Cc1cc(C)cc(NC(=O)COc2ccc(F)c3c2C(=O)CC3C)c1 (centres undefined),1,1
O=C(NCCN1CCCCC1)c1cc(N2CCCN3CCC[C@H]3C2)ccn1,7,6
CCS(=O)(=O)c1ccc2oc(-c3ccc(Cl)c(N)c3)nc2c1,4,3
CC1(C)CN=c2s/c(=C\c3ccc(Cl)cc3)c(=O)n2C1,3,-4
CCCCNC(=O)c1csc(CN(CCCC)C(=O)Nc2cccc(C)c2C)n1,13,8
Cc1nc2sc(C)c(C)n2c(=O)c1NC(=O)C(c1ccccc1)c1ccccc1,9,1
O=C(c1cn2cc(Cl)ccc2n1)N1CCC2(CC1)C(=O)Nc1ccccc12,-4,-2
CCOC(=O)c1c(N=CN(C)C)c2cc([N+](=O)[O-])cnc2n1C,-9,-11
CC(C)Cc1cn(C2CCN(C(=O)C3CCOC(C)(C)C3)CC2)nn1 (centres undefined),-1,-3
C=C(C)Cn1cnc2ccccc21,2,-1
Cn1nc(C2CC(=O)NCc3nc4ccccn4c32)c2c(Cl)cccc21 (centres undefined),-3,34
COc1ccc(CCN(C)C2CCCN(Cc3cnc(SC)nc3)C2)cc1OC (centres undefined),2,-4
O=C1c2ccccc2C(=O)N1CN(C(=O)C(F)(F)F)c1ccc(Cl)c(Cl)c1,9,7
Cc1cc2c(=O)n(Cc3ccco3)c(SCc3ccccc3)nc2s1,-4,-2
Cc1ccc2n1CCN(C(=O)CCn1nc3ccccn3c1=O)C2C (centres undefined),9,7
Cc1nc(-c2ccccc2)c(C(=O)N2CCN3C(=O)CNC(=O)C3C2)s1 (centres undefined),3,1
CN(Cc1ccccn1)C(=O)CC1(c2cccc(C(F)(F)F)c2)CC(=O)N(C2CC2)C1=O (centres undefined),9,-2
O=C(NCc1ccccc1C(F)(F)F)C(c1ccccc1)N1CCCC1 (centres undefined),0,-4
CN(Cc1cnccn1)Cc1nc(N)c2ccccc2n1,0,0
O=S(=O)(c1ccccc1Cl)N1CCN(c2nccc(-c3ccc(Oc4ccccc4)cc3)n2)CC1,7,0
CN(C)C(=O)COc1cccc(CNc2ncc(C(F)(F)F)cc2Cl)c1,-14,-14
COc1cc(-c2nc(C=Nc3ccc(C)cc3)c(O)o2)cc(OC)c1OC,-7,-8

# Structures above that contain a Cl atom:
SMILES,NPYLR7 agonist,NPYLR7 agonist max-min
Nc1cccc(-c2cc(Nc3ccc(Cl)cc3)ncn2)c1,7,4
CCc1[nH]n(-c2ccc(Cl)c(Cl)c2)c(=O)c1C1=C(N2CCC(C)CC2)C(=O)N(c2ccc(OC)c(OC)c2)C1=O,-17,-11
Cn1c(NC(=O)C2CCCN(S(C)(=O)=O)C2)nc2cc(Cl)ccc21 (centres undefined),-4,-4
O=C(c1ccc(F)cc1)N1CCN(c2nc(-c3cccs3)nc3cc(Cl)ccc23)CC1,6,5
CCOc1ccc(-c2cc(-c3nc(-c4cccs4)no3)[nH]n2)cc1Cl,9,5
O=C(c1nn2c(c1Cl)NC(c1ccco1)CC2C(F)(F)F)N1CCSCC1 (centres undefined),7,1
COCC(=O)N1CCC(C(NC(=O)c2ccccc2Cl)C(=O)N2CCCCC2)CC1 (centres undefined),3,6
O=C(c1nn(Cc2ccncc2)c2c1CN(Cc1cc3c(cc1Cl)OCO3)CC2)N1CCCC1,16,4
O=c1ccc(-c2ccc(Cl)cc2)nn1CCCNS(=O)(=O)CCc1ccccc1,-3,-2
O=C(CCc1ccccc1)C1CCCN(Cc2nc(-c3ccc(Cl)cc3)no2)C1 (centres undefined),4,-1
COc1ccc(OC)c(-c2cc(Cl)c3c(c2)CC(CNC(=O)CCn2cncn2)O3)c1 (centres undefined),0,-6
N=C1C(c2nc3ccccc3[nH]2)C(=O)CN1NC(=O)c1sc2ccccc2c1Cl (centres undefined),6,5
CCS(=O)(=O)c1ccc2oc(-c3ccc(Cl)c(N)c3)nc2c1,4,3
CC1(C)CN=c2s/c(=C\c3ccc(Cl)cc3)c(=O)n2C1,3,-4
O=C(c1cn2cc(Cl)ccc2n1)N1CCC2(CC1)C(=O)Nc1ccccc12,-4,-2
Cn1nc(C2CC(=O)NCc3nc4ccccn4c32)c2c(Cl)cccc21 (centres undefined),-3,34
O=C1c2ccccc2C(=O)N1CN(C(=O)C(F)(F)F)c1ccc(Cl)c(Cl)c1,9,7
O=S(=O)(c1ccccc1Cl)N1CCN(c2nccc(-c3ccc(Oc4ccccc4)cc3)n2)CC1,7,0
CN(C)C(=O)COc1cccc(CNc2ncc(C(F)(F)F)cc2Cl)c1,-14,-14

# Source: PubChem BioAssay (Fisher Drug Discovery Resource Center)
